Bioassay records: PubChem, ICCB-Longwood Screening Facility, Harvard Medical School
KSHV LANA nucl: LANA-nucleosome interaction inhibition; z-score (test concentration not listed); FITC-LANA1-23 / chicken nucleosome fluorescence polarization; active compounds read low; AID 720717; 51,000 compounds, 0.3% hits;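 active = both repeat wells score below -2 in polarization z-score versus plate sample wells, excluding overly bright wells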;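 note: 100 nL library stock added to about 30 µL; numbers are from one replicate; some results filed as inactive read as strong as hits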
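Test system: purified chicken nucleosomes with FITC-labelled LANA N-terminal peptide (1-23); Input: 240 nM purified chicken nucleosomes (480 nM peptide binding sites), final; Medium: TEN-BT buffer, pH 7.5; Timing: 10–45 min, room temperature; Technique: fluorescence polarization, 480 nm excitation, 535 nm parallel and perpendicular emission; Replication: duplicates.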
Ab BasE inh: inhibitors of Acinetobacter baumannii siderophore enzyme BasE. purified BasE, fluorescence polarization binding displacement. inhibition, % (no concentration beside the values). 84,000 compounds, 0.1% hits. AID 485350;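 active = both replicates above 25% with normal brightness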;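 note: 0% = negative plate control signal and 100% = positive plate control signal; stock transfer was 100 nL into about 30 µL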
Numbers without * were called inactive; nt = not tested or not shown; & = joins results of further samples. This is a subset (hit frequency here may not be typical).

SMILES	KSHV LANA nucl	Ab BasE inh
COc1ccccc1CNCCc1ccccc1	-1.5	-0.5
COc1ccccc1C1C(C#N)=C(N)Oc2c1c(=O)sc1ccccc21 (stereo not drawn)	0.61	0.2
O=c1c2ccccc2[nH]c(=S)n1-c1cc(C(F)(F)F)cc(C(F)(F)F)c1	nt	1.4
CN1CCC(N(C)c2nc(-c3cccs3)nc3sc4c(c23)CCC4)CC1	nt	-0.3
CC1CCOP(=S)(N(C)C)O1 (stereo not drawn)	0.07	2.1
Cc1ccc(C)c(NC2=NCCCS2)c1	nt	-0.2
CC1CN=C(NCc2cccnc2)S1 (stereo not drawn)	-0.57	2.2
Cc1cccc(N=C2SCCN2C)c1C	nt	-0.5
COc1ccc(N2C(=O)CC(=O)NC2=S)cc1	-0.46	3.2
CN1C2CCC1CC(NCc1ccccc1)C2 (stereo not drawn)	1.6	nt
COc1ccc(C2=[N+]([O-])C(C)(C(=O)c3ccccc3)N(O)C2OC)cc1 (stereo not drawn)	nt	4.5
Cc1ccc(NN)cc1C	0.14	0.9
CCOP(=S)(c1ccccc1)C1(C#N)CCCC1 (stereo not drawn)	nt	0.8
Nc1cc(C(=O)Nc2ccccc2F)ccc1N1CC2CC(C1)c1cccc(=O)n1C2 (stereo not drawn)	1.2	-1.8
Cc1ccc(CN(Cc2ccco2)C(=S)NCC(=O)N2CCC3(CC2)OCCO3)cc1	-0.68	2.2
C=C1[C@@H](O)C2O[C@]3(CCC(/C=C/[C@@H](C)[C@@H]4CC(C)=C[C@@]5(O[C@H](C[C@@](C)(O)C(=O)O)CCC5O)O4)O3)CCC2O[C@@H]1C(O)C[C@H](C)C1O[C@@]2(CCCCO2)CC[C@H]1C (stereo partly drawn)	nt	0.7
COCc1cc(OC(=O)N(C)C)nc(-c2ccncc2)n1	nt	2.5
C1CN2CN3CCN(CN1C3)C2	-0.39	2.2
CN(C)c1ccc(P(=S)(N2CCCCC2)N2CCCCC2)cc1	nt	1.5
c1ccc(OCC2CCCN3CCCCC23)nc1 (stereo not drawn)	-1	1.5
Cc1nn(Cc2ccccc2)c(C)c1C(=O)OCC(=O)Nc1ccc(S(N)(=O)=O)cc1	nt	-1.8
COc1cc2c(no[n+]2[O-])n2nnnc12	-0.65	1.4
CC(Cc1ccccc1)NC(=O)Cc1ccc(N(C)C)cc1 (stereo not drawn)	-0.052	1.8
CC1(C)CN=C(Nc2nc3ccccc3s2)S1	-1.8	-0.2
Clc1ccc(C(Cn2ccnc2)OCc2csc3c(Cl)cccc23)c(Cl)c1 (stereo not drawn)	0.085&3.2	-5.5
SMILES	KSHV LANA nucl	Ab BasE inh
CN(C)P1(=S)OCCCO1	-1.1	-1.3
CC(C(=O)c1ccc2ccccc2c1)N1CCCCC1 (stereo not drawn)	-1.2	-1.6
CCOc1ccc(CC2(CCc3ccncc3)C(=O)NC(=O)NC2=O)cc1	0	-1.2
COc1ccc2c(c1)[C@]13CCCC[C@H]1[C@H](C2)N(C)CC3	-0.14	1.3
CCCC12CN3CC(CCC)(CN(C1)C3C)C2=O (stereo not drawn)	-0.019	0.9
C#CC1(O)CN2CCC1CC2 (stereo not drawn)	-0.16	-1.1
CC(Cc1ccccc1)NCCC(c1ccccc1)c1ccccc1 (stereo not drawn)	0.31	-1.6
c1ccc2c3c([nH]c2c1)C1(CCNCC1)NCC3	-0.78	nt
CC(C)C/C(=N\O)c1cn(C)c2ccccc12	nt	2.1
COc1ccc(CCN)cc1OC	2.3	nt
O=C(O)c1cn(Cc2ccccc2)c2ccccc12	nt	0.1
CC(=O)O[C@H]1C[C@H](O[C@H]2[C@@H](O)C[C@H](O[C@H]3[C@@H](O)C[C@H](O[C@H]4CC[C@@]5(C)C(CCC6C5C[C@@H](O)[C@]5(C)[C@@H](C7=CC(=O)OC7)CC[C@]65O)C4)O[C@@H]3C)O[C@@H]2C)O[C@H](C)[C@H]1O[C@@H]1O[C@H](CO)[C@@H](O)[C@H](O)[C@H]1O (stereo partly drawn)	-0.21&0.97	2.5
C/[N+]([O-])=C\c1cccnc1	nt	-0.3
CC(=O)OCC1=C(C(=O)O)N2C(=O)[C@@H](NC(=O)CCCC(N)C(=O)O)C2SC1 (stereo partly drawn)	0.26	-16
COCCOC(=O)C1=C(C)OC(N)=C(C#N)C12C(=O)Nc1ccc(Br)cc12 (stereo not drawn)	-0.5	2.0
OC1CCN(Cc2c[nH]c3ccccc23)CC1	0.25	0.5
COc1ccc(CCNC2CCCCC2)cc1OC	-1.3	-1.7
O=C1NC(=O)N(c2ccccc2)C(=O)/C1=C/C=C/c1ccco1	0.062	4.0
CCC(C)c1c(O)[nH]c(=S)[nH]c1=O (stereo not drawn)	-0.55	1.1
Clc1ccc(CN2CCNCC2)cc1	nt	-2.6
O=S(=O)(c1ccc(Cl)cc1)N1CCCC1c1cccnc1 (stereo not drawn)	-0.78	nt
CCOC(=O)C1=C(N)Oc2c(c(=O)oc3ccccc23)C12C(=O)N(CC(=O)OC)c1ccccc12 (stereo not drawn)	nt	1.3
Oc1ccc(N2CCNCC2)cc1	nt	-0.3
c1cc(CN2CCNCC2)ccn1	0.37	1.7
COc1ccc(CC2C(=O)NC(=S)NC2=O)cc1	0.069	0.9

Some of these compounds in order of heavy-atom count, highest first:
SMILES	KSHV LANA nucl	Ab BasE inh
COc1ccc(CCNC2CCCCC2)cc1OC	-1.3	-1.7
Clc1ccc(CN2CCNCC2)cc1	nt	-2.6
C/[N+]([O-])=C\c1cccnc1	nt	-0.3

Additional structures follow:
SMILES	KSHV LANA nucl	Ab BasE inh
CCCCCCCC1C(=O)NC(=O)NC1=O	1.4	0.9
N#CC(C#N)=Cc1ccc(-c2cccs2)s1	-0.3	2.4
Cc1ccc(CSc2nnc(OC(=O)N(C)C)n2-c2cccc(Cl)c2)cc1	nt	-0.5
CCC/C(=N\O)c1c[nH]c2ccccc12	2.1	-1.7
Cc1nc(CC(=O)N2CCN(C/C=C/c3ccccc3)CC2)cs1	nt	-1.2
Cc1ccc(S(=O)(=O)C2(C(=O)N3CC4CC(C3)c3cccc(=O)n3C4)CC2)cc1 (stereo not drawn)	0.46	1.7
Clc1ccc(C(OCCN2CCCCC2)c2ccccc2)cc1 (stereo not drawn)	-0.15&-0.59	-3.8&-4.8
COc1ccc2[nH]c3c(c2c1)CCN=C3C	0.47	-2.3
CN1CCC2(CC1)CC(=O)c1ccccc1O2	0.035	-0.1
O=C1CC(=O)N(CCC2=CCCCC2)C(=O)N1	0.054	-2.0
COC(=O)Cn1cc(C=C2C(=O)N(C)C(=O)N(C)C2=O)c2ccccc21	-2.8	25
Clc1ccc(NCCN2CCCCCC2)nn1	-0.85	2.3
Cc1nn(Cc2ccccc2)cc1C(=O)O	1.6	-5.2
COc1cc(C)cc(CN2CC=C(c3ccccc3)CC2)c1O	nt	1.6
Brc1ccc(CN2CCNCC2)s1	nt	-1.3
COc1ccc2[nH]cc(C3=CCNCC3)c2c1	3.9	nt
O=C(COc1ccc(C=C2C(=O)NC(=O)NC2=O)cc1)NCC1CCCO1 (stereo not drawn)	-0.28	-0.9
C=CCN1CC[C@]23c4c5ccc(O)c4O[C@H]2C(=O)CC[C@@]3(O)[C@H]1C5	-1.2&0.82	-2.2
Cc1ccc(S(=O)(=O)N2CCCC2c2cccnc2)cc1 (stereo not drawn)	-1.5	nt
O=C(c1ccc(CS(=O)(=O)c2ccc(Br)cc2)o1)N1CCC2(CC1)OCCO2	1.8	1.1
O=C(Cc1cccs1)N1CCN(CCc2ccccc2)CC1	0.48	-1.3
CN(C)CC(=O)c1ccc2cc[nH]c2c1	1.1	-0.1
CN1C(=O)CN=C(c2ccccc2)c2cc(Cl)ccc21	-0.014	nt
N#CCCn1cc(C(=O)Cn2cc(C(F)(F)F)ccc2=O)c2ccccc21	nt	0.0
CC1O[C@@H](O[C@@H]2C=C3CCC4C(CC[C@]5(C)[C@@H](c6ccc(=O)oc6)CC[C@]45O)[C@@]3(C)CC2)C(O)[C@@H](O)[C@H]1O (stereo partly drawn)	-0.079	-0.8

Some of the entries above, reformatted:
Every second line gives: KSHV LANA nucl | Ab BasE inh
CCOC(=O)C1=C(N)Oc2c(c(=O)oc3ccccc23)C12C(=O)N(CC(=O)OC)c1ccccc12 (stereo not drawn)
→ nt | 1.3
Oc1ccc(N2CCNCC2)cc1
→ nt | -0.3
c1cc(CN2CCNCC2)ccn1
→ 0.37 | 1.7
COc1ccc(CC2C(=O)NC(=S)NC2=O)cc1
→ 0.069 | 0.9
CCCCCCCC1C(=O)NC(=O)NC1=O
→ 1.4 | 0.9
N#CC(C#N)=Cc1ccc(-c2cccs2)s1
→ -0.3 | 2.4
Cc1ccc(CSc2nnc(OC(=O)N(C)C)n2-c2cccc(Cl)c2)cc1
→ nt | -0.5
CCC/C(=N\O)c1c[nH]c2ccccc12
→ 2.1 | -1.7
Cc1nc(CC(=O)N2CCN(C/C=C/c3ccccc3)CC2)cs1
→ nt | -1.2
Cc1ccc(S(=O)(=O)C2(C(=O)N3CC4CC(C3)c3cccc(=O)n3C4)CC2)cc1 (stereo not drawn)
→ 0.46 | 1.7
Clc1ccc(C(OCCN2CCCCC2)c2ccccc2)cc1 (stereo not drawn)
→ -0.15&-0.59 | -3.8&-4.8
COc1ccc2[nH]c3c(c2c1)CCN=C3C
→ 0.47 | -2.3
CN1CCC2(CC1)CC(=O)c1ccccc1O2
→ 0.035 | -0.1
O=C1CC(=O)N(CCC2=CCCCC2)C(=O)N1
→ 0.054 | -2.0
COC(=O)Cn1cc(C=C2C(=O)N(C)C(=O)N(C)C2=O)c2ccccc21
→ -2.8 | 25
Clc1ccc(NCCN2CCCCCC2)nn1
→ -0.85 | 2.3
Cc1nn(Cc2ccccc2)cc1C(=O)O
→ 1.6 | -5.2
COc1cc(C)cc(CN2CC=C(c3ccccc3)CC2)c1O
→ nt | 1.6
Brc1ccc(CN2CCNCC2)s1
→ nt | -1.3
COc1ccc2[nH]cc(C3=CCNCC3)c2c1
→ 3.9 | nt
O=C(COc1ccc(C=C2C(=O)NC(=O)NC2=O)cc1)NCC1CCCO1 (stereo not drawn)
→ -0.28 | -0.9
C=CCN1CC[C@]23c4c5ccc(O)c4O[C@H]2C(=O)CC[C@@]3(O)[C@H]1C5
→ -1.2&0.82 | -2.2
Cc1ccc(S(=O)(=O)N2CCCC2c2cccnc2)cc1 (stereo not drawn)
→ -1.5 | nt
O=C(c1ccc(CS(=O)(=O)c2ccc(Br)cc2)o1)N1CCC2(CC1)OCCO2
→ 1.8 | 1.1
O=C(Cc1cccs1)N1CCN(CCc2ccccc2)CC1
→ 0.48 | -1.3
CN(C)CC(=O)c1ccc2cc[nH]c2c1
→ 1.1 | -0.1
CN1C(=O)CN=C(c2ccccc2)c2cc(Cl)ccc21
→ -0.014 | nt

The list goes on:
SMILES	KSHV LANA nucl	Ab BasE inh
CCCC1(CCC)C(=O)NC(=Nc2ccccc2)NC1=O	-0.27	-0.1
C=C[C@]12CN(C)C3C4COC(CC41)[C@]1(C(=O)Nc4ccccc41)[C@@H]32 (stereo partly drawn)	0.27	1.3
CCCCC/C=C\C/C=C\C/C=C\CCCCCCC(=O)NCCO	-0.031	-2.4
COc1cc(/C=C/C(=O)O)ccc1OCC(=O)N1CCN(CC(=O)NC(C)(C)C)CC1	nt	1.6
O=C(CNC(=S)N1CC2CC(C1)c1cccc(=O)n1C2)NC1CCCCC1 (stereo not drawn)	0.39	0.9
O=C1/C(=C\c2cc3c(cc2Cl)OCO3)N2CCC1CC2	-0.81	0.6
N#C/C(=C\c1ccc(O)c(O)c1)C(N)=S	3.2	5.2
CN1C2C[C@H](OC(=O)[C@H](CO)c3ccccc3)C[C@H]1[C@@H](O)C2	0.28	1.2
S=P1(NCc2ccccc2)NC(=NCc2ccccc2)c2c(nc3n2CCC3)N1 (stereo not drawn)	-1	0.8
CCNCC1(c2ccc(OC)c(OC)c2)CCCC1	-0.23	1.1
Cc1c(CN2CC=C(c3ccccc3)CC2)c(=O)n(-c2ccccc2)n1C	nt	-0.2
C=C1C[C@@H]2[C@H](CC[C@]3(C)C(=O)CC[C@@H]23)[C@@]2(C)C=CC(=O)C=C12	-0.07	nt
C#CCN1C(=O)C2(C(C(=O)OCC)=C(N)Oc3ccccc32)C2=C1CC(C)(C)CC2=O (stereo not drawn)	-0.87	-0.8
CN(C)S(=O)(=O)c1ccc(N2CCNCC2)cc1	-0.12	-1.5
CCn1ccnc1P(=S)(N(C)C)N(C)C	nt	2.0
N#CC(C#N)=Cc1ccsc1	-0.44	1.0
N#CC(c1c[nH]c2ccccc12)N1CCCC1 (stereo not drawn)	nt	-4.6
Cc1ccc(CS(=O)(=O)Cc2ccc(C(=O)N3CCC4(CC3)OCCO4)o2)cc1	2.6	-0.3
OC1(c2ccc(F)cc2)CC2CCC(C1)N2Cc1nnnn1Cc1ccco1 (stereo not drawn)	-0.47	0.2
Cc1cccnc1NC1=NCC(C)S1 (stereo not drawn)	0.38	3.6
COc1cc(C(=O)OC2CC3CCC(C2)N3C)ccc1O (stereo not drawn)	-0.6	0.6
N#CC(c1cccnc1)N1CCOCC1 (stereo not drawn)	-0.94	nt
CC12CCC3C(CCC4CC(N)CCC43C)C1CCC2O (stereo not drawn)	0.075	-1.8
O=C1OCCN1P(=O)(c1ccccc1)c1ccccc1	-0.01	4.3
COc1ccc2c(c1O)-c1c(OC)c(OC)cc3c1[C@H](C2)N(C)CC3	-0.15&-0.47	-1.0&-2.2
CCN(CC)P(=O)(Oc1cccc(C)c1)N(CC)CC	-0.68	1.6
Cc1nc2ccccc2c(=O)n1-c1ccc(Br)cc1	-0.79	-0.1
CCn1c(O)c(N=Nc2ccc(S(=O)(=O)N3CCOCC3)cc2)c(=O)n(CC)c1=S	nt	0.1
O=C1C2CCN(CC2)C1Cc1ccc2ccccc2c1O (stereo not drawn)	0.15	-2.0
